Screening results (PubChem BioAssay)
PrP 5UTR inh = inhibition of PrP 5' UTR reporter expression; cell-based PrP 5' UTR mRNA reporter, plate reader; inhibition, % (no concentration beside the values); 340,000 tested, 0.35% active; AID 488862, 2010;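 active = every replicate at 50% or more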;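 also: 0 = median of the neutral control wells; tested in H4 reporter cells; numbers are from one replicate; inactives centre near -14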
Sa ugtP lethal = growth inhibition of ugtP-null S. aureus, primary screen, RN4220 ugtP deletion, OD600; 16 h; some inactives read as strong as hits; growth inhibition, % (test concentration not listed); 330,000 tested, 0.54% active; AID 1259309, 2017;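 active = z-score under -3 and OD600 up to 0.15 on both plates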;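 also: plate controls were untreated wells for no effect and antibiotic for full effect; wells of about 80 µL received 100 nL stock; the first replicate is given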
RN4220 kill = growth inhibition of S. aureus RN4220, primary screen, OD600; 16 h; inhibition, % (concentration not given with the values); 330,000 tested, 0.33% active;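 active = z-score of -3 or lower and OD600 up to 0.18 on both plates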;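 also: plate controls were untreated cells for no effect and reference antibiotic for full effect; stock transfer was 100 nL into about 80 µL; one replicate is shown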
BJeLR lethal = MLPCN primary cell-based screen for lethality selective to Ras in HRASV12 cells. inhibition, % (test concentration not listed). BJeLR (HRASV12) viability, CellTiter-Glo ATP luminescence, 48 h; reference of the scale not given here. AID 1554, 2009. 300,000 tested, 0.17% active;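 active = replicate mean above 50%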;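 also: 50 nL library stock added to about 25 µL; numbers are from one replicate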
Mtb hypoxia inh = PubChem AID 1159583 | M. tuberculosis hypoxia-regulated fluorescent reporter, fluorescence | fluorescence inhibition, % (no concentration beside the values) | 300,000 tested, 0.1% active;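 active = 35 to 45% if threefold the growth effect, above 45% if 1.5-fold the growth effect; inactive = the rest, general growth blockers included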;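 also: wells of about 50 µL received 100 nL stock; 0% = vehicle wells and 100% = reference inhibitor wells; whole bacteria with a GFP reporter of the hypoxia response; strong numbers were not always called active; many hits fall short of the cut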
Bead autofluor = counter-screen for toxin protease inhibitors: compound fluorescence | compound autofluorescence counterscreen, microsphere flow cytometry; stronger effect = higher value | fluorescence intensity (no concentration beside the values) | 360,000 tested, 3.1% active;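 active = at least 3 SD above the mean of all compounds, about 16000 in these data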;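 also: 100 nL of 1 mM stock went into each well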
Mtb hypoxia inh growth = recorded beside Mtb hypoxia inh, whose call it bears; growth inhibition, %; measured here: M. tuberculosis growth (absorbance);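 0% = vehicle and 100% = reference antibiotic; read after six days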
* marks the source's active call; other numbers are inactive results.

CCCN(CC(=O)Nc1ccccc1C)C(=O)c1ccc(OCc2c(C)noc2C)cc1 was read as PrP 5UTR inh -2.7, Sa ugtP lethal 4.2, RN4220 kill 3.6, Mtb hypoxia inh 5.6, Bead autofluor 5922 and Mtb hypoxia inh growth 5.9.
For Cc1cc([N+](=O)[O-])nn1Cc1noc(C(=O)NCCCn2ccnc2)n1 the results were PrP 5UTR inh -9.6, Sa ugtP lethal 2.5, RN4220 kill 1.3, BJeLR lethal -8.0, Mtb hypoxia inh -7.5, Bead autofluor 3679 and Mtb hypoxia inh growth 1.0.
`CCc1nnc(NC(=O)CSCc2cc(=O)n3ccsc3n2)s1` gave PrP 5UTR inh -8.8, Sa ugtP lethal 15.1, RN4220 kill 1.9, BJeLR lethal 0.3, Mtb hypoxia inh 8.6, Bead autofluor 4276 and Mtb hypoxia inh growth 5.2.
For COc1ccc(NC(=O)C(NC(=O)c2ccc(=O)[nH]c2)c2ccccc2)cc1 (stereo not given) the results were PrP 5UTR inh -25.9, Sa ugtP lethal 4.7, RN4220 kill -3.5, BJeLR lethal 0.2, Mtb hypoxia inh 2.4, Bead autofluor 2541 and Mtb hypoxia inh growth 1.3.
`CC(Oc1ccc(Cl)cc1Cl)C(=O)NC1CCSC1=O` (stereo not given) gave PrP 5UTR inh -14.1, Sa ugtP lethal -9.1, RN4220 kill -2.6, BJeLR lethal -4.4, Mtb hypoxia inh 1.6, Bead autofluor 22259* and Mtb hypoxia inh growth 2.1.
CC1(C)C2CCC1(C)C(NC1=NCCC1)C2 (stereo not given) was read as PrP 5UTR inh -14.5, Sa ugtP lethal 10.8, RN4220 kill -1.3, BJeLR lethal -0.7 and Bead autofluor 3404.
CCOC(=O)C1C(=O)N(C)C2(C)CC1c1cc(OC)ccc1O2 (stereo not given) was read as PrP 5UTR inh -4.8, Sa ugtP lethal 5.6, RN4220 kill 3.1, BJeLR lethal -6.5, Mtb hypoxia inh 10.8, Bead autofluor 6643 and Mtb hypoxia inh growth 5.0.
`COc1ccc(Cn2c(C)cc3c(c2=O)C(c2cccs2)C(C#N)=C(N)O3)cc1OC` (stereo not given) gave PrP 5UTR inh -3.4, Sa ugtP lethal -12.5, RN4220 kill 11.4, BJeLR lethal -15.0, Mtb hypoxia inh -0.6, Bead autofluor 16938* and Mtb hypoxia inh growth 1.4.
For NC(=O)C1(N2CCCCC2)CCN(C(=S)Nc2ccccc2)CC1 the results were PrP 5UTR inh -20.7, Sa ugtP lethal 4.4, RN4220 kill 1.1, BJeLR lethal 2.4, Mtb hypoxia inh -0.1, Bead autofluor 2154 and Mtb hypoxia inh growth 1.0.
For O=C(c1cccc(S(=O)(=O)N2CCOCC2)c1)N1CCN(S(=O)(=O)c2cccc([N+](=O)[O-])c2)CC1 the results were PrP 5UTR inh -9.7, Sa ugtP lethal -1.8, RN4220 kill 2.8, Mtb hypoxia inh -2.4, Bead autofluor 5403 and Mtb hypoxia inh growth -4.4.
c1ccc(Cn2c(CNc3nc4ccccc4n3CCN3CCOCC3)nc3ccccc32)cc1 was read as PrP 5UTR inh -2.8, Sa ugtP lethal -8.5, RN4220 kill 5.1, BJeLR lethal 7.5, Mtb hypoxia inh 9.0, Bead autofluor 23712* and Mtb hypoxia inh growth 1.7.
Screening O=C(CC12CC3CC(CC(C3)C1)C2)NC(=S)N1CCCCC1 returned PrP 5UTR inh -13.6, Sa ugtP lethal 2.2, RN4220 kill 2.0, BJeLR lethal -2.9 and Bead autofluor 2192.
`O=C(/C=C/c1ccc([N+](=O)[O-])s1)N1CCN(c2ccccc2)CC1` gave PrP 5UTR inh -19.2, Sa ugtP lethal 10.8, RN4220 kill 24.1, BJeLR lethal -2.4, Mtb hypoxia inh 11.2, Bead autofluor 5900 and Mtb hypoxia inh growth 4.9.
Screening CCN1CCN(CCCNC(=O)CCCn2nc(C)c3sc4ccccc4c3c2=O)CC1 returned PrP 5UTR inh -8.8, Sa ugtP lethal 10.2, RN4220 kill 1.1, BJeLR lethal -8.4, Mtb hypoxia inh 7.0, Bead autofluor 5851 and Mtb hypoxia inh growth -5.5.
`CC(=O)Nc1ccc(N2N=C(C)C(N=Nc3ccccc3)C2=O)cc1` (stereo not given) gave PrP 5UTR inh -23.0, Sa ugtP lethal -11.6, RN4220 kill 5.2, BJeLR lethal -5.5, Mtb hypoxia inh 9.8, Bead autofluor 2320 and Mtb hypoxia inh growth 11.9.
O=C(c1ccccc1)c1nccc2ccccc12 was read as PrP 5UTR inh -15.1, Sa ugtP lethal 6.8, RN4220 kill 3.7, BJeLR lethal 0.9, Mtb hypoxia inh 3.3, Bead autofluor 2278 and Mtb hypoxia inh growth 8.8.
O=C(NCC1CCCO1)c1ccc(N2CCCCC2)nc1 (stereo not given) was read as PrP 5UTR inh -41.6, Sa ugtP lethal 5.8, RN4220 kill 1.3, BJeLR lethal -0.4, Mtb hypoxia inh 10.2, Bead autofluor 8074 and Mtb hypoxia inh growth 12.2.
For O=C(Nc1ccc(N2CCOCC2)cc1)C1CCCN(S(=O)(=O)c2cccc(C(F)(F)F)c2)C1 (stereo not given) the results were PrP 5UTR inh -18.9, Sa ugtP lethal 2.9, RN4220 kill -1.4, BJeLR lethal 6.5 and Bead autofluor 3975.
COc1cccc(/C=N/Nc2ncnc(N)c2[N+](=O)[O-])c1OC was read as PrP 5UTR inh 10.7, BJeLR lethal -9.0 and Bead autofluor 21088*.
Screening CCOc1ccccc1N1CCN(Cc2cnc(-c3ccccc3)[nH]2)CC1 returned PrP 5UTR inh -0.1, Sa ugtP lethal 4.8, RN4220 kill 1.5, BJeLR lethal -0.6, Mtb hypoxia inh 10.7, Bead autofluor 3863 and Mtb hypoxia inh growth 13.0.

Gathered by group: the entries above containing two or more sulfur atoms
`CCc1nnc(NC(=O)CSCc2cc(=O)n3ccsc3n2)s1` gave PrP 5UTR inh -8.8, Sa ugtP lethal 15.1, RN4220 kill 1.9, BJeLR lethal 0.3, Mtb hypoxia inh 8.6, Bead autofluor 4276 and Mtb hypoxia inh growth 5.2.
For O=C(c1cccc(S(=O)(=O)N2CCOCC2)c1)N1CCN(S(=O)(=O)c2cccc([N+](=O)[O-])c2)CC1 the results were PrP 5UTR inh -9.7, Sa ugtP lethal -1.8, RN4220 kill 2.8, Mtb hypoxia inh -2.4, Bead autofluor 5403 and Mtb hypoxia inh growth -4.4.

(further entries)
For O=S(=O)(Nc1ccccn1)c1ccc(-n2cccn2)cc1 the results were PrP 5UTR inh -8.5, Sa ugtP lethal -2.5, RN4220 kill 1.2, BJeLR lethal 10.6, Mtb hypoxia inh -13.4, Bead autofluor 5438 and Mtb hypoxia inh growth 8.9.
CN(CC(=O)Nc1ccc(Cl)c(C(F)(F)F)c1)C(=O)C1CC(=O)N(CCc2ccccc2)C1 (stereo not given) was read as PrP 5UTR inh -7.4, Sa ugtP lethal -15.0, RN4220 kill 3.8, Mtb hypoxia inh 5.2, Bead autofluor 6529 and Mtb hypoxia inh growth 0.5.
`O=C(OCC(=O)N1CCN(c2ccccc2)CC1)c1ccc(Cl)cc1[N+](=O)[O-]` gave PrP 5UTR inh -16.9, Sa ugtP lethal 9.9, RN4220 kill 5.7, BJeLR lethal -7.0, Mtb hypoxia inh 3.4, Bead autofluor 4276 and Mtb hypoxia inh growth 1.5.
Screening N#Cc1c(C(F)(F)F)cc(-c2ccc(Cl)cc2)nc1SCC(=O)O returned PrP 5UTR inh -10.6, Sa ugtP lethal 9.6, RN4220 kill 2.4, BJeLR lethal 0.1, Mtb hypoxia inh -3.9, Bead autofluor 5750 and Mtb hypoxia inh growth -0.3.
`Cc1cccc(-c2noc(CN(C)S(=O)(=O)c3cc(Cl)ccc3Cl)n2)c1` gave Sa ugtP lethal 0.2, RN4220 kill 6.6, BJeLR lethal 4.4, Mtb hypoxia inh 6.3, Bead autofluor 10191 and Mtb hypoxia inh growth 14.9.
For COc1ccc(C2C(C(=O)c3ccco3)=C(O)C(=O)N2CC2CCCO2)cc1OC (stereo not given) the results were PrP 5UTR inh -17.7, Sa ugtP lethal 10.2, RN4220 kill 4.3, BJeLR lethal 0.2, Mtb hypoxia inh 5.3, Bead autofluor 5114 and Mtb hypoxia inh growth -3.3.
Screening Fc1ccc(CCNCc2ccc(Br)cc2)cc1 returned PrP 5UTR inh -11.2, Sa ugtP lethal 0.4, RN4220 kill 2.8, BJeLR lethal 2.9, Mtb hypoxia inh 8.4, Bead autofluor 2658 and Mtb hypoxia inh growth -2.4.
`O=C(COc1ccc2c(-c3ccccc3)cc(=O)oc2c1)N[C@H](Cc1c[nH]c2ccccc12)C(=O)O` gave PrP 5UTR inh -30.9, Sa ugtP lethal 12.6, RN4220 kill 4.1, BJeLR lethal 9.8 and Bead autofluor 5257.
Screening O=S(=O)(Nc1cccnc1)c1ccc(F)cc1 returned PrP 5UTR inh -21.9, Sa ugtP lethal 2.0, RN4220 kill 1.8, BJeLR lethal 0.2, Mtb hypoxia inh 2.3, Bead autofluor 3399 and Mtb hypoxia inh growth -1.0.
For O=C(CN1CCN(c2ccccc2F)CC1)Nc1cccnc1Cl the results were PrP 5UTR inh -7.9, Sa ugtP lethal 3.3, RN4220 kill 4.4, BJeLR lethal -0.2, Mtb hypoxia inh -1.0, Bead autofluor 2487 and Mtb hypoxia inh growth -1.1.
Screening CCSc1nc2c(c(=O)[nH]1)C(c1cccs1)C(C(=O)OC)=C(C)N2 (stereo not given) returned PrP 5UTR inh -11.1, Sa ugtP lethal 10.6, RN4220 kill 3.6, BJeLR lethal 0.2, Mtb hypoxia inh 1.9, Bead autofluor 5946 and Mtb hypoxia inh growth 0.3.
Screening N/C(=N\OC(=O)c1cc(Br)ccc1Cl)c1ccccn1 returned PrP 5UTR inh -81.6, BJeLR lethal -2.7 and Bead autofluor 4168.
For COc1cccc(OC)c1C(=O)Nc1cc2c(cc1N1CCOCC1)n(C)c(=O)n2C the results were PrP 5UTR inh -14.5, Sa ugtP lethal -4.0, RN4220 kill 1.0, BJeLR lethal -6.0, Mtb hypoxia inh 6.4, Bead autofluor 6377 and Mtb hypoxia inh growth 3.4.
`COCCCNC(=O)/C(C#N)=C/c1c(N2CCN(c3ccc(OC)cc3)CC2)nc2c(C)cccn2c1=O` gave PrP 5UTR inh -19.0, Sa ugtP lethal 2.0, RN4220 kill -2.4, BJeLR lethal 4.0, Mtb hypoxia inh 1.5, Bead autofluor 2802 and Mtb hypoxia inh growth 7.0.
For COc1ccc(NC(=S)Nc2ccc(C)c(S(=O)(=O)N3CCCCC3)c2)cc1 the results were Sa ugtP lethal -3.1, RN4220 kill 4.9, BJeLR lethal 10.3, Mtb hypoxia inh 12.1 and Mtb hypoxia inh growth 6.1.
For CCCCCN(C(=O)CCC(=O)OCC(=O)N1CCC(C)CC1)c1c(N)n(CCCC)c(=O)[nH]c1=O the results were PrP 5UTR inh -19.2, Sa ugtP lethal -4.6, RN4220 kill -4.0, BJeLR lethal 9.7, Mtb hypoxia inh -1.6, Bead autofluor 5453 and Mtb hypoxia inh growth 0.0.
Screening COc1nc(Nc2ccc(C(C)C)cc2)nc(OC)n1 returned PrP 5UTR inh -51.9, Sa ugtP lethal 3.7, RN4220 kill 5.3, BJeLR lethal 6.6, Mtb hypoxia inh 6.2, Bead autofluor 12355 and Mtb hypoxia inh growth 2.2.
Screening COc1ccc(CNc2ncc(-c3ccc(F)cc3)n2C)cc1OC returned PrP 5UTR inh -26.5, Sa ugtP lethal 7.1, RN4220 kill 2.1, BJeLR lethal 6.1, Mtb hypoxia inh 12.7, Bead autofluor 3884 and Mtb hypoxia inh growth 7.5.
`CCn1c(COc2cccc(OC)c2)nnc1SCC(=O)Nc1ccccc1C(=O)OC` gave PrP 5UTR inh -0.4, Sa ugtP lethal 4.5, RN4220 kill 5.1, Mtb hypoxia inh 2.7, Bead autofluor 19252* and Mtb hypoxia inh growth 10.1.
For O=C(OCc1cc([N+](=O)[O-])cc2c1OCOC2)c1ccccn1 the results were PrP 5UTR inh -16.7, Sa ugtP lethal -7.4, RN4220 kill -2.2, BJeLR lethal -0.5, Mtb hypoxia inh -7.0, Bead autofluor 4830 and Mtb hypoxia inh growth 0.7.

Pulled by compound from the entries so far:
`CCn1c(COc2cccc(OC)c2)nnc1SCC(=O)Nc1ccccc1C(=O)OC` gave PrP 5UTR inh -0.4, Sa ugtP lethal 4.5, RN4220 kill 5.1, Mtb hypoxia inh 2.7, Bead autofluor 19252* and Mtb hypoxia inh growth 10.1.
For COc1cccc(OC)c1C(=O)Nc1cc2c(cc1N1CCOCC1)n(C)c(=O)n2C the results were PrP 5UTR inh -14.5, Sa ugtP lethal -4.0, RN4220 kill 1.0, BJeLR lethal -6.0, Mtb hypoxia inh 6.4, Bead autofluor 6377 and Mtb hypoxia inh growth 3.4.
